Source: PubChem
Bead autofluor – compound fluorescence in toxin protease inhibitor counterscreen. compound autofluorescence counterscreen, microsphere flow cytometry; hits give high values. AID 624483. fluorescence intensity (test concentration not listed). 360,000 tested, 3.1% active;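 active means at least 3 SD above the mean of all compounds, about 16000 in these data; inconclusive means too few beads counted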;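 further: 100 nL of 1 mM stock went into each well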
ugtP null kill – compounds lethal to S. aureus RN4220 ugtP deletion mutant. 330,000 tested, 0.54% active. OD600 growth, 16 h; some inactives read as strong as hits. AID 1259309. growth inhibition, % (test concentration not listed);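 active means z-score under -3 and OD600 up to 0.15 on both plates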;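 further: plate controls were untreated wells for no effect and antibiotic for full effect; wells of about 80 µL received 100 nL stock; the first replicate is given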
PrP 5UTR inh – inhibition of PrP 5' UTR reporter expression | cell-based PrP 5' UTR mRNA reporter, plate reader | inhibition, % (no concentration beside the values) | 340,000 tested, 0.35% active | AID 488862;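 active means every replicate at 50% or more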;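 further: 0 = median of the neutral control wells; tested in H4 reporter cells; numbers are from one replicate; inactives centre near -14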
BJeLR viability – BJeLR cell viability loss; 300,000 tested, 0.17% active; BJeLR (HRASV12) viability, CellTiter-Glo ATP luminescence, 48 h; reference of the scale not given here; inhibition, % (concentration not given with the values); AID 1554;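 active means replicate mean above 50%; inconclusive means above 50% but judged a plate artefact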;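 further: 50 nL library stock added to about 25 µL; numbers are from one replicate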
Mtb hypoxia inh – inhibitors of hypoxia-regulated fluorescent reporter in Mycobacterium tuberculosis; M. tuberculosis hypoxia-regulated fluorescent reporter, fluorescence; fluorescence inhibition, % (test concentration not listed); 300,000 tested, 0.1% active; AID 1159583;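 active means 35 to 45% if threefold the growth effect, above 45% if 1.5-fold the growth effect; inactive means the rest, general growth blockers included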;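 further: wells of about 50 µL received 100 nL stock; 0% = vehicle wells and 100% = reference inhibitor wells; whole bacteria with a GFP reporter of the hypoxia response; strong numbers were not always called active; many hits fall short of the cut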
RN4220 kill – S. aureus RN4220 growth inhibition; OD600, 16 h; inhibition, % (concentration not given with the values); 330,000 tested, 0.33% active; AID 1259311;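 active means z-score of -3 or lower and OD600 up to 0.18 on both plates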;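 further: plate controls were untreated cells for no effect and reference antibiotic for full effect; stock transfer was 100 nL into about 80 µL; one replicate is shown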
Mtb hypoxia inh growth – second read-out of Mtb hypoxia inh, no call of its own (marks repeat the call); growth inhibition, %; measured here: M. tuberculosis growth (absorbance);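 0% = vehicle and 100% = reference antibiotic; read after six days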
* = called active by the depositor; ? = inconclusive; · = not tested or not shown.

molecule,Bead autofluor,ugtP null kill,PrP 5UTR inh,BJeLR viability,Mtb hypoxia inh,Mtb hypoxia inh growth,RN4220 kill
Cc1ccc(C(=O)Nc2c(C)cc(-c3ccc(Cl)cc3)oc2=O)cc1,2088,0,-9,-4,·,·,-6.5
Cc1onc(-c2ccccc2)c1C(=O)Oc1ccccc1,6166,21,·,-2,5,3,2.7
Cc1csc(NC(=O)C2CSC3(C)CCC(=O)N23)n1 (stereo unspecified),6192,-1,-7,-15,3,6,0.3
COC(=O)c1cccnc1Oc1ccccc1,5577,7,-34,0,-2,1,3.0
COc1ccc(NC(=O)COc2ccc(C(=O)NCc3cccnc3)cc2OC)cc1,8446,5,-12,·,7,2,3.7
O=C1/C(=C\c2cccs2)Sc2ccc3ccccc3c21,2474,36,-81,·,0,10,-9.7
Cc1cccc(C)c1NC(=O)Nc1cccs1,2607,0,1,6,1,2,4.0
Cc1cc(-c2ccc([N+](=O)[O-])cc2)nc2ccccc12,5182,13,-38,4,10,3,4.7
CCc1ccccc1NC(=O)[C@@H]1CCC(=O)N1C1OC(=O)c2ccccc21 (stereo partly specified),5873,-6,-20,-2,·,·,1.2
Cc1ccc(N2CC(C(=O)Nc3nnc(SCC(N)=O)s3)CC2=O)cc1C (stereo unspecified),?,-4,-2,-1,9,11,-1.9
CC(C)Cc1nc(N2CCN(C(=O)c3ccccc3)CC2)c(C#N)c2c1CCC2,5322,-4,-20,-1,8,16,3.8
COc1cccc(CC(=O)Nc2ccc(-c3csc(C)n3)cc2)c1,3340,-3,-27,-1,2,5,1.6
CS(=O)(=O)Nc1nc2ccccc2[nH]1,3497,4,-5,4,3,-1,3.6
CC1CCCCN1C(=O)CSc1nc2ncccc2[nH]1 (stereo unspecified),5870,1,-3,3,6,-3,3.7
Cc1ccnc(NC(=O)c2cccc(NS(=O)(=O)c3ccccc3C)c2)c1,2636,1,-16,·,·,·,1.5
O=C(NC1CCCCC1)C1CCCN(S(=O)(=O)c2ccc(Br)s2)C1 (stereo unspecified),3797,9,-15,1,5,2,3.9
COc1ccc(CNC(=O)c2nccnc2CO)cc1,3521,6,-25,1,4,-1,1.3
CCCOC(=O)CC1C(=O)NCCN1Cc1cc(OC)cc(OC)c1 (stereo unspecified),4435,8,-4,-11,13,-1,13
Cc1cc(OCC(=O)Nc2ccncc2)cc(C)c1Cl,3711,-19,-9,12,-1,9,-5.3
CCOc1cc(NC(=S)NCc2ccco2)c(OCC)cc1NC(C)=O,5794,-3,-25,-3,0,1,3.4

Full records, quoted from the list:
Cc1cc(OCC(=O)Nc2ccncc2)cc(C)c1Cl in the list: Bead autofluor: 3711; ugtP null kill: -19; PrP 5UTR inh: -9; BJeLR viability: 12; Mtb hypoxia inh: -1; Mtb hypoxia inh growth: 9; RN4220 kill: -5.3
COC(=O)c1cccnc1Oc1ccccc1 in the list: Bead autofluor: 5577; ugtP null kill: 7; PrP 5UTR inh: -34; BJeLR viability: 0; Mtb hypoxia inh: -2; Mtb hypoxia inh growth: 1; RN4220 kill: 3.0

New compounds follow
molecule,Bead autofluor,ugtP null kill,PrP 5UTR inh,BJeLR viability,Mtb hypoxia inh,Mtb hypoxia inh growth,RN4220 kill
COc1ccc(NC(=O)C(=O)NCCO)cc1Cl,2033,0,-16,0,4,9,1.9
CN(C)S(=O)(=O)c1ccc(C(=O)N2CC(=O)Nc3ccc(F)cc3C2c2ccc(F)cc2)cc1 (stereo unspecified),3499,25,-10,0,-13,6,3.0
Fc1ccccc1Nc1nc2ccccc2n2nnnc12,5751,19,-43,-3,8,4,5.6
O=c1[nH]c(=S)n(C2CC2)c(O)c1C=Nc1ccc2c(c1)OCO2,5856,0,-16,-2,8,9,2.1
O=C(NCCc1ccccc1)c1ccc(CS(=O)(=O)Cc2ccc(F)cc2)o1,·,0,-9,-7,-5,5,0.4
C=CCN1C(=O)C(O)(CC(=O)c2ccc(-n3cccc3)cc2)c2ccccc21 (stereo unspecified),4243,-2,-13,4,6,14,2.3
Cc1cc(N(CCO)CCO)nc(-n2nc(C)cc2C)n1,4310,2,-5,2,·,·,5.9
Cc1ccc(C(=O)Nc2ccc(C(=O)NN=Cc3ccccn3)cc2)cc1,·,-3,·,·,-18,-4,0.1
CC(Sc1nccn1C)C(=O)c1ccc(Br)cc1 (stereo unspecified),5843,18,-15,-6,3,13,-0.7
CCN1C[C@]2(COC)CCC(OC)[C@@]34C5CC6C(OC)C[C@@]7(OCO[C@]7(C(O)C23)C14)C5C6OC (stereo partly specified),·,-7,·,·,2,-2,1.2
CC1CN(C(=O)CCC(=O)NC2CCN(Cc3ccccc3)CC2)c2ccccc2O1 (stereo unspecified),5709,-3,-32,9,4,5,2.3
CCOC(=O)c1cn(CC(=O)Nc2cccc(F)c2)nn1,2308,10,-12,-3,-1,4,1.1
Cc1ccc(COc2ccccc2C(=S)N2CCCC2)cc1,2473,10,-43,-3,5,5,8.5
CC(CC(=O)NC(C)c1ccccc1)=NNC(N)=S (stereo unspecified),·,-6,·,·,8,5,4.8
CC(Oc1ccccc1F)C(=O)NNC(=O)CCNC(=O)c1ccco1 (stereo unspecified),5423,6,-16,-5,-6,-2,2.9
CC(C)Cn1cnc2c(SCc3ccccn3)nc(N)nc21,3009,7,-26,·,14,10,3.2
COc1cc(SC#N)ccc1N=Cc1c(C)[nH]n(-c2ccc(C)cc2C)c1=O,2859,-4,-10,10,6,3,-16
CC(C)C(NC(=O)OCc1ccccc1)C(=O)N1CCOCCOCCOCC1 (stereo unspecified),4195,6,-28,3,5,-1,1.8
COc1ccc(NS(=O)(=O)c2ccc(NC(C)=O)cc2)c(OC)c1,3994,10,-22,4,15,5,8.7
O=C(Nc1ccccc1N1CCCC1)C1CCN(C(=O)c2ccc(F)cc2)CC1,5909,7,-5,1,12,3,4.3

The list continues.
molecule,Bead autofluor,ugtP null kill,PrP 5UTR inh,BJeLR viability,Mtb hypoxia inh,Mtb hypoxia inh growth,RN4220 kill
CN(C)C(CO)c1nnc(C(Cc2ccc(O)cc2)NC(=O)C2CCNCC2)o1 (stereo unspecified),·,1,·,·,4,-2,3.6
CCCCc1cc(=O)oc2cc(C)cc(OCC(=O)Nc3cccnc3)c12,5081,-1,-8,3,-1,8,8.4
COc1cc(CCCN2C(=O)C(=O)NCC2c2ccccc2)cc(OC)c1OC (stereo unspecified),·,-2,·,·,1,-9,2.8
COc1ccc(C=NN2C(=N)SCC2=O)cc1,·,5,·,·,0,6,5.8
Cc1cc(C)n2nc(CC(=O)NCc3ccccc3Cl)nc2n1,2422,1,-5,1,-7,-6,-4.8
CCN(CC)S(=O)(=O)c1ccc(N2CCCC2)c(NC(=O)c2ccc(N3CCCC3=O)cc2)c1,5417,9,-7,-9,4,10,3.8
CCCCCNS(=O)(=O)c1cc(C)ccc1OC,3366,-7,2,0,-6,2,-3.0
COCCCn1c(SCC(=O)Nc2ccc(NC(C)=O)cc2)nc2sc3c(c2c1=O)CCC3,3016,9,-14,-4,-3,3,3.2
O=c1nc2c(O)cccn2c2c1c(=O)[nH]c1ccccc12,10225,1,-18,2,6,40,3.0
O=C(Nc1cccc(Cl)c1)c1ccc(OC(=S)N2CCOCC2)cc1,4633,-5,-32,9,0,0,-4.1
O=C(CSCc1ccccc1)NNc1c(F)c(F)cc(F)c1F,3931,16,0,0,12,14,2.3
COC(=O)/C(C#N)=C/c1c(N2CCCCCC2)nc2c(C)cccn2c1=O,4125,5,-6,5,-9,5,5.5
CC(=O)Nc1sc(C)c(C)c1C(=O)OCC(=O)NCc1ccc(Cl)cc1,?,0,·,·,8,10,5.4
O=C(CCn1c(=O)oc2ccccc21)Nc1cccc([N+](=O)[O-])c1,5311,-2,-21,-1,0,0,0.3
Nc1ccccc1-c1nnc(SCC(=O)Nc2ccccc2OC(F)F)[nH]c1=O,3482,0,-17,·,14,5,3.8
CCOc1ccc(NC(=O)NNC(=O)c2ccc3ccccc3c2O)cc1,5786,14,-15,-5,9,0,0.9
CCOC(=O)N1CCN(C(=O)CSc2ccc3nnc(-c4ccccn4)n3n2)CC1,4245,1,-8,11,1,-2,1.4
Cc1cc(C)cc(N(CC(=O)N2CCC(C)CC2)S(=O)(=O)c2ccccc2)c1,·,-3,-8,2,5,2,7.2
CN(C)S(=O)(=O)c1ccc(C(=O)NNC(=O)C2COc3ccccc3O2)cc1 (stereo unspecified),2450,5,-5,-2,13,1,5.4
CCS(=O)(=O)N1CCC(C(=O)OCC(=O)c2ccc(Br)cc2)CC1,5121,-1,-13,-9,·,·,0.5

Among those listed so far, these contain a furan ring, fused or not.
molecule,Bead autofluor,ugtP null kill,PrP 5UTR inh,BJeLR viability,Mtb hypoxia inh,Mtb hypoxia inh growth,RN4220 kill
CCOc1cc(NC(=S)NCc2ccco2)c(OCC)cc1NC(C)=O,5794,-3,-25,-3,0,1,3.4
O=C(NCCc1ccccc1)c1ccc(CS(=O)(=O)Cc2ccc(F)cc2)o1,·,0,-9,-7,-5,5,0.4
CC(Oc1ccccc1F)C(=O)NNC(=O)CCNC(=O)c1ccco1 (stereo unspecified),5423,6,-16,-5,-6,-2,2.9

New compounds follow:
molecule,Bead autofluor,ugtP null kill,PrP 5UTR inh,BJeLR viability,Mtb hypoxia inh,Mtb hypoxia inh growth,RN4220 kill
O=C(c1ccccc1)c1ccc(OCC(O)CN2CCN(Cc3ccccc3)CC2)cc1 (stereo unspecified),6237,-4,-33,-8,3,10,11
Cc1onc(-c2ccccc2Cl)c1C(=O)NCc1ccccc1,9878,2,-7,-4,8,10,4.1
O=C(OCC(=O)N1CCC(Cc2ccccc2)CC1)c1ccccc1O,4238,3,-56,·,6,15,0.8
CCOC(=O)N1CCN(C(=O)Nc2ccc3oc(C)nc3c2)CC1,13276,11,-34,-7,11,22,8.4
CCOc1ccc(-n2c(SCC(=O)NCc3ccco3)nc3ccccc3c2=O)cc1,4279,5,1,-2,4,6,4.2
Cc1cccc2cc(C(c3nnnn3Cc3ccccc3)N3CCN(C)CC3)c(=O)[nH]c12 (stereo unspecified),19831*,-4,-6,3,2,9,2.6
O=Nc1c(O)ccc2cc(S(=O)(=O)O)ccc12,4107,8,-26,·,7,-1,3.9
CCCCNC(=O)CSc1nc2ccc(N3CCOCC3)cc2c(=O)n1Cc1ccc(OC)cc1,3264,7,-12,·,-5,6,9.7
Cc1cc(C)c(NC(=O)CS(=O)CC(=O)N2CCN(c3cccc(C)c3C)CC2)c(C)c1 (stereo unspecified),5242,15,-5,-5,1,3,2.5
C[N+](C)(C)CCNC(=O)c1c(O)c2c([nH]c1=O)CCCC2,4845,7,-13,1,·,·,1.6
CC(=O)N(CCc1ccccc1)Cc1cc2ccc(C)c(C)c2[nH]c1=O,4015,3,-18,-8,2,8,2.2
C/C(CS(=O)(=O)c1ccc(Cl)c(Cl)c1)=N/NC(N)=S,4174,·,-7,-4,·,·,·
NNC(=O)c1sc2cc(C(F)(F)F)cnc2c1-c1ccccn1,5507,-2,-10,-2,-4,-1,0.5
CC(=O)Nc1c(NC(C)(C)C)c2ccccc2oc1=O,4481,7,-12,1,10,7,2.4
CC(NS(=O)(=O)c1ccc(Br)cc1)C(=O)NC1CCCCCC1 (stereo unspecified),6004,3,-6,2,4,7,-0.9
COc1ccccc1NC(=O)c1ccc2c(c1)C(=O)N(c1ccccc1OC)C2=O,3103,5,-17,18,5,-3,5.4
Cc1ccc(C)c(-c2csc(N/N=C/c3ccco3)n2)c1,3102,·,-32,4,·,·,·
CC1(C)Cc2ccccc2C(COc2ccccc2)=N1,5022,·,-6,-3,·,·,·
O=C(C[C@H]1C[C@H](C(=O)N2CCOCC2)[C@@]2(CCC3CCCC3)c3[nH]c4ccc(Cl)cc4c3CCN2C1=O)NCC12CC3CC(CC(C3)C1)C2,3201,-31,1,·,-2,4,-2.4
Cc1cc(C)c(C(=O)N(C)CC2CCCN(CCc3ccccc3F)C2)o1 (stereo unspecified),6649,6,-8,2,5,0,1.1

Continued.
molecule,Bead autofluor,ugtP null kill,PrP 5UTR inh,BJeLR viability,Mtb hypoxia inh,Mtb hypoxia inh growth,RN4220 kill
O=S(=O)(Nc1cccc(-c2ccc(N3CCOCC3)nn2)c1)c1ccc(Cl)c(Cl)c1,5534,32,-39,-9,1,-2,-1.3
CCCc1cc(C(=O)Nc2ccc(CC)cc2)no1,3583,4,-62,3,14,-3,4.1
CCC(=O)Nc1ccc(OCc2nnc3c4ccccc4c(C)nn23)cc1,4235,4,-18,3,6,3,9.8
OC(c1ccccc1)(c1ccccc1)c1ncc[nH]1,3696,2,-40,3,3,10,2.7
O=C(O)c1ccc(-c2ccc(/C=c3/sc4nc5ccccc5n4c3=O)o2)cc1Cl,7041,·,-17,10,·,·,·
